NS1 function inh = influenza NS1 inhibition. S. cerevisiae slowed by influenza A NS1, growth recovery by OD600. hit rate 0.4% among 270,000. Potency, µM (top dose mostly 46.1 µM), for inactives: top-dose activity, positive = more growth; active means well fitted rising curve with a large enough effect; inconclusive means small, poorly fitted or top-dose-only effect; inactive means no such curve, though single readings can be large or run the other way; further: nearly all actives have a fitted effect of over 50% in size
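Recovery from NS1-induced slow growth read by OD600 in budding yeast switched to galactose assay medium (pH 6.0, -URA) at 1:100 dilution. Compound 23 nl per well; the matching strain lacking NS1 serves as control.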
StopGo reporter = FMDV 2A StopGo reporter, luciferase signal; human cells with a luciferase reporter of 2A StopGo recoding; control for the full effect not named in the record; Potency, µM (series often up to 57.9 µM), inactives show top-dose signal change, negative = less light; hit rate 1.2% among 410,000; active = well fitted falling curve with a large enough effect; inconclusive = small, poorly fitted or top-dose-only effect; inactive = no such curve, though single readings can be large or run the other way; tested in HEK293T cells; further: on the % scale 0 is the no-effect control and ±100 the full control effect; nearly all actives have a fitted effect of over 45% in size; luciferase light after 4 h
Cruzain Triton = cruzain (T. cruzi) inhibition with detergent; Potency, µM, for the others: max response, negative = inhibition, hits mostly inhibitors; AID 1478; hit rate 0.43% among 200,000; purified cruzain, Z-FR-AMC fluorescence, 0.01% Triton; P25779;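 further: plate controls were neutral wells for no effect and buffer without enzyme for full effect; nearly all actives have a fitted effect of over 40% in size; top concentration of the series not given in the record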
Target sequence (P25779 123-467 limits assumed): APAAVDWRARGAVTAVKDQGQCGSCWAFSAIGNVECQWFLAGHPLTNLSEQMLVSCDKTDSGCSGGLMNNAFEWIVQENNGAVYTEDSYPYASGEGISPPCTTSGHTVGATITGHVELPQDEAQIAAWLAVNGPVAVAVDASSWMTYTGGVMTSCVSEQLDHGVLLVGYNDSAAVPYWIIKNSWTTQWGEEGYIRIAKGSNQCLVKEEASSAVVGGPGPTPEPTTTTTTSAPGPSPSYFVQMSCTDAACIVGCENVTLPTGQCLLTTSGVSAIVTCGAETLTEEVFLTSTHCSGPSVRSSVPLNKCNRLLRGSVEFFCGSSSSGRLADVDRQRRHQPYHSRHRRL
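15 min RT preincubation of 1.5 nM cruzain with compound, then 2 uM Z-FR-AMC added; kinetic AMC fluorescence, 60 s delta. Triton X-100 0.01%, pH 5.5.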
Cruzain noTriton = inhibitors of Trypanosoma cruzi cruzain without detergent | purified cruzain, Z-FR-AMC fluorescence, no detergent | P25779 | Potency, µM, without a hit: max response, negative = inhibition, most hits filed as inhibitors | hit rate 2.3% among 200,000 | AID 1476;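 further: plate controls were enzyme without inhibitor for no effect and buffer without enzyme for full effect; nearly all actives have a fitted effect of over 40% in size; top concentration of the series not given in the record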
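Purified cruzain at 1.5 nM, pre-incubated 15 min with compound at room temperature in 100 mM sodium acetate pH 5.5, 5 mM DTT, 0.00005% Triton X-100. Reaction started with 2 uM Z-FR-AMC; AMC fluorescence increase over 60 s gives rate.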
RE007 growth inh = less growth of the S. pombe RE007 Vpr strain; S. pombe RE007 Vpr strain, BacTiter-Glo ATP luminescence, 24 h; control for the full effect not named in the record; Potency, µM (highest dose often 92.2 µM), for inactives: at the highest dose activity change, negative = less growth; hit rate 0.21% among 360,000; active = well fitted falling curve with a large enough effect; inconclusive = small, poorly fitted or top-dose-only effect; inactive = no such curve, though single readings can be large or run the other way;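 further: on the % scale 0 is the no-effect control and ±100 the full control effect; nearly all actives have a fitted effect of over 50% in size; the assay follows cell death caused by Vpr and the record does not say whether a fall means rescue or toxicity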
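Fission yeast strain RE007, carrying one chromosomally integrated HIV-1 vpr copy, was seeded at OD 0.01 in PMG+AL medium with 23 nL pinned compound. After 24 h at 30 °C and 99% humidity, viability was read by BacTiter-Glo luminescence.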
SARS PLpro yeast = blocks SARS-CoV papain-like protease in a yeast assay; S. cerevisiae expressing SARS-CoV PLpro, growth rescue; control for the full effect not named in the record; Potency, µM (titrated, usually from 32.9 µM), for the others: top-dose activity, positive = growth rescue; hit rate 0.19% among 330,000; AID 485353; active means well fitted rising curve with a large enough effect; inconclusive means small, poorly fitted or top-dose-only effect; inactive means no such curve, though single readings can be large or run the other way; further: 0% is about no effect; nearly all actives have a fitted effect of over 55% in size; growth read by luminescence after 48 h
Marburg entry inh = inhibitors of Marburg virus binding or cell entry; Marburg virus pseudotyped entry inhibition, cell reporter; control for the full effect not named in the record; about a third of the inactives were read at about 46 µM; Potency, µM (doses to about 37.8 µM), inactives show at the top dose activity change, negative = inhibition, hits mostly inhibitors; hit rate 1.8% among 300,000; AID 540276; active = well fitted inhibition curve with a large enough effect; inconclusive = small, poorly fitted or top-dose-only effect, or effect the other way; inactive = flat fitted curve, though single readings scatter; tested in HEK293 cells; about a fifth of its hits are not listed in these tables; further: on the % scale 0 is the no-effect control and ±100 the full control effect; luciferase read-out
LASV entry inh = inhibitors of Lassa virus binding or cell entry; Lassa virus pseudotype entry inhibition, cell reporter; control for the full effect not named in the record; Potency, µM (doses to about 37.9 µM), for inactives: top-dose activity change, negative = inhibition, most hits filed as inhibitors; AID 540256; hit rate 1.2% among 300,000; active means well fitted inhibition curve with a large enough effect; inconclusive means small, poorly fitted or top-dose-only effect, or effect the other way; inactive means flat fitted curve, though single readings scatter; tested in HEK293 cells; further: on the % scale 0 is the no-effect control and ±100 the full control effect; nearly all actives have a fitted effect of over 50% in size; luciferase read-out
* hit, by the source's call; & = joins results of further samples; [ ] = remark or other dose. Unless noted, the call rests on the fitted dose curve; in most records, active means well fitted curve in the direction sought with a large enough effect; inconclusive means small, poorly fitted or top-dose-only effect, or another doubt; inactive means no such curve, though single readings can be large; an effect the other way counts as inactive or inconclusive. Potency means the concentration at half of the fitted maximal effect.

A first look:
Results for COc1ccc(S(=O)(=O)/N=C2/NC(=O)/C(=C\c3cc(OC)c(OC)cc3[N+](=O)[O-])S2)cc1 ?
NS1 function inh: inconclusive; StopGo reporter: -8%; Cruzain Triton: -11%; Cruzain noTriton: inconclusive; RE007 growth inh: -4%; SARS PLpro yeast: 1%; Marburg entry inh: -3%; LASV entry inh: -6%

How did COC(=O)c1ccc(NC(=O)c2cccc(N3C(=O)C4C5C=CC(C6CC56)C4C3=O)c2)cc1 (stereo not drawn) do in these assays?
NS1 function inh: -48%; StopGo reporter: inconclusive; RE007 growth inh: -1%; SARS PLpro yeast: 0%; Marburg entry inh: inconclusive; LASV entry inh: inconclusive

Results, repeating the preview:
Results for COc1ccc(S(=O)(=O)/N=C2/NC(=O)/C(=C\c3cc(OC)c(OC)cc3[N+](=O)[O-])S2)cc1 ?
NS1 function inh: inconclusive; StopGo reporter: -8%; Cruzain Triton: -11%; Cruzain noTriton: inconclusive; RE007 growth inh: -4%; SARS PLpro yeast: 1%; Marburg entry inh: -3%; LASV entry inh: -6%

How did COC(=O)c1ccc(NC(=O)c2cccc(N3C(=O)C4C5C=CC(C6CC56)C4C3=O)c2)cc1 (stereo not drawn) do in these assays?
NS1 function inh: -48%; StopGo reporter: inconclusive; RE007 growth inh: -1%; SARS PLpro yeast: 0%; Marburg entry inh: inconclusive; LASV entry inh: inconclusive

Results for O=C(O)CC(NNC(=O)c1ccccc1)C(=O)Nc1cccc([N+](=O)[O-])c1 (stereo not drawn) ?
NS1 function inh: 3%; StopGo reporter: -20%; RE007 growth inh: -5%; SARS PLpro yeast: 2%

Results for CCOC(=O)N1CCN(C(=O)CS(=O)(=O)c2cn(Cc3ccccc3C)c3ccccc23)CC1 ?
NS1 function inh: -1%; StopGo reporter: inconclusive; Cruzain Triton: 1.5%; Cruzain noTriton: -4%; RE007 growth inh: 2%; SARS PLpro yeast: 5%; Marburg entry inh: inconclusive; LASV entry inh: -19%

What do the screens show for `O=C(Oc1ccc(Br)cc1C(=S)N1CCCC1)c1ccccc1F`?
NS1 function inh: -10%; StopGo reporter: 24%; Cruzain Triton: -12%; Cruzain noTriton: -14%; RE007 growth inh: -11%; SARS PLpro yeast: -24%; Marburg entry inh: 22%; LASV entry inh: 12%

What do the screens show for `CCc1cccc(NC(=O)CCCn2c(=O)[nH]c3ccsc3c2=O)c1`?
NS1 function inh: 13%; StopGo reporter: -9%; RE007 growth inh: 3%; SARS PLpro yeast: -2%; Marburg entry inh: 7%[46.1 µM]; LASV entry inh: -9%[46.1 µM]

How did CCOC(=O)C(C)On1c(-c2ccc(Cl)cc2)nc2ccc([N+](=O)[O-])cc21 (stereo not drawn) do in these assays?
NS1 function inh: -10%; StopGo reporter: -58%; Cruzain Triton: 0.6%; Cruzain noTriton: -7%; RE007 growth inh: -19%; SARS PLpro yeast: -35%; Marburg entry inh: inconclusive; LASV entry inh: -27%

What do the screens show for `COc1cccc(OC)c1-c1nn2c(-c3ccccc3Cl)nnc2s1`?
NS1 function inh: -73%; StopGo reporter: 29%; Cruzain Triton: -0.6%; Cruzain noTriton: -25%; RE007 growth inh: -12%; SARS PLpro yeast: -15%; Marburg entry inh: 10%&10%; LASV entry inh: -7%

Results for CN(CC(=O)NC(=O)NCc1ccccc1)Cc1ccc(Cl)c(Cl)c1 ?
NS1 function inh: -43%; StopGo reporter: -14%; Cruzain Triton: -8.2%; Cruzain noTriton: -12%; RE007 growth inh: inconclusive; SARS PLpro yeast: -46%; Marburg entry inh: 23%; LASV entry inh: inconclusive

What do the screens show for `Cc1nn(-c2ccccc2)c2sc(C(=O)Nc3cccc(O)c3)cc12`?
StopGo reporter: 0%; Cruzain Triton: -15%; Cruzain noTriton: -18%; Marburg entry inh: -44%[46.1 µM]; LASV entry inh: inconclusive

What do the screens show for `CC1(C)SC(=S)N(/N=C/c2ccccc2O)C1N(O)C(=O)Nc1ccccc1` (stereo not drawn)?
NS1 function inh: -4%; StopGo reporter: 57%[activator]; RE007 growth inh: 2%; SARS PLpro yeast: 3%; Marburg entry inh: inconclusive; LASV entry inh: -27%

How did CCOC(=O)Cc1nnc(NC(=O)CC)s1 do in these assays?
NS1 function inh: 0%; StopGo reporter: -7%; Cruzain Triton: -4.4%; Cruzain noTriton: -11%; RE007 growth inh: 0%; SARS PLpro yeast: 0%; Marburg entry inh: 10%[46.1 µM]; LASV entry inh: 13%

How did Cc1ccc(NC(=O)C2CCC(CNc3c(N4CCC(C)CC4)c(=O)c3=O)CC2)cc1F (stereo not drawn) do in these assays?
NS1 function inh: 1%; StopGo reporter: -25%; RE007 growth inh: 3%; SARS PLpro yeast: 4%

Results for CCc1nc(SCC(=O)c2ccccc2)c2c(=O)n(C)c(=O)n(C)c2n1 ?
NS1 function inh: 1%; StopGo reporter: inconclusive; RE007 growth inh: -10%; SARS PLpro yeast: 2%; Marburg entry inh: inconclusive; LASV entry inh: 14%[46.1 µM]

How did Cc1ccc(CNc2nc3c(S(=O)(=O)c4ccc(C)c(C)c4)nnn3c3ccc(Cl)cc23)cc1 do in these assays?
StopGo reporter: -6%; Cruzain Triton: 0.0%; Cruzain noTriton: 12%; Marburg entry inh: 15%[46.1 µM]

Results for Cc1ccc(NC(=S)N2CCC(NC(=O)c3ccco3)CC2)cc1C ?
NS1 function inh: -4%; StopGo reporter: 1%; RE007 growth inh: -14%; SARS PLpro yeast: -5%; Marburg entry inh: 0%[46.1 µM]; LASV entry inh: -12%[46.1 µM]

Results for CC(=O)c1ccc(N2CCN(C(=O)CNS(=O)(=O)c3ccc4c(c3)OCCCO4)CC2)c(F)c1 ?
StopGo reporter: -23%; RE007 growth inh: 8%; SARS PLpro yeast: -2%; Marburg entry inh: inconclusive; LASV entry inh: 5%

How did CC12CC3CC(C)(C1)CC(C(=O)Nc1nncs1)(C3)C2 do in these assays?
NS1 function inh: 1%; StopGo reporter: -21%; RE007 growth inh: -2%; SARS PLpro yeast: 0%; Marburg entry inh: -12%; LASV entry inh: -11%

Results for COc1c(N2CCN(C(=S)Nc3ccc(F)cc3)C(C)C2)c(F)cc2c(=O)c(C(=O)O)cn(C3CC3)c12 (stereo not drawn) ?
NS1 function inh: -4%; StopGo reporter: 1%; Cruzain Triton: -0.1%; Cruzain noTriton: -5%; RE007 growth inh: -9%; SARS PLpro yeast: 1%; Marburg entry inh: 4%; LASV entry inh: 5%

Results for Cc1ccc(CNC(=O)c2ccc(N3CCc4ccccc43)c([N+](=O)[O-])c2)cc1 ?
NS1 function inh: inconclusive; StopGo reporter: 6%; Cruzain Triton: -6.1%; Cruzain noTriton: inconclusive; RE007 growth inh: 3%; SARS PLpro yeast: -15%; Marburg entry inh: inconclusive; LASV entry inh: inconclusive

Results for CC(/C=N/NC(=O)c1nnn(-c2nonc2N)c1CN(C)C)=C\c1ccco1 ?
NS1 function inh: -2%; StopGo reporter: 4%; RE007 growth inh: -9%; SARS PLpro yeast: 0%; Marburg entry inh: -3%[46.1 µM]; LASV entry inh: 11%[46.1 µM]

How did Cc1cccc(C)c1NC(=O)C1(NC(=O)C2CCCN2C(=O)OC(C)(C)C)CCCCC1 (stereo not drawn) do in these assays?
NS1 function inh: 1%; StopGo reporter: 8%; Cruzain Triton: 0.2%; Cruzain noTriton: 7%; RE007 growth inh: -11%; SARS PLpro yeast: 4%; Marburg entry inh: -10%&-10%; LASV entry inh: 18%

How did O=C(c1cc2ccccc2oc1=O)N(Cc1ccco1)C1CCS(=O)(=O)C1 (stereo not drawn) do in these assays?
NS1 function inh: 8.9µM*; StopGo reporter: 59%[activator]; Cruzain Triton: -6.2%; Cruzain noTriton: -9%; RE007 growth inh: -11%; SARS PLpro yeast: -4%; Marburg entry inh: 9%; LASV entry inh: 29%

Results for Cc1ccccc1-c1nnc(SCC(=O)N2CCCc3ccccc32)o1 ?
StopGo reporter: -10%; Cruzain Triton: -5.6%; Cruzain noTriton: 10%; Marburg entry inh: -23%[46.1 µM]; LASV entry inh: 0%[46.1 µM]

What do the screens show for `O=C(CSc1ccc(Cl)cc1)Nc1ccc(C2SCCS2)cc1`?
NS1 function inh: -5%; StopGo reporter: 20%; RE007 growth inh: 13%; SARS PLpro yeast: 0%; Marburg entry inh: -1%; LASV entry inh: -11%

What do the screens show for `Cn1c(CO)cnc1S(=O)(=O)Cc1ccc(Cl)cc1`?
NS1 function inh: 0%; StopGo reporter: 4%; RE007 growth inh: 8%; SARS PLpro yeast: 0%; Marburg entry inh: 5%[46.1 µM]; LASV entry inh: 3%[46.1 µM]

How did CCN(C(=O)Cn1c(=O)n(CC2CCC(C(=O)NC)CC2)c(=O)c2sccc21)c1ccccc1 (stereo not drawn) do in these assays?
StopGo reporter: -16%; Cruzain Triton: -1.3%; Cruzain noTriton: 23%; LASV entry inh: 5%[46.1 µM]

Results for CCCn1cc(SCC(=O)Nc2nnc(C)s2)c2ccccc21 ?
NS1 function inh: -10%; StopGo reporter: inconclusive; Cruzain Triton: -5.7%; Cruzain noTriton: -9%; RE007 growth inh: -3%; SARS PLpro yeast: 1%

How did C=CCNc1nc(-c2c(C)nc3sccn23)cs1 do in these assays?
NS1 function inh: -68%; StopGo reporter: -20%; Cruzain Triton: -4.9%; Cruzain noTriton: -10%; RE007 growth inh: -9%; SARS PLpro yeast: -25%; Marburg entry inh: -28%; LASV entry inh: -28%

Results for Cc1ccc(CNC(=O)c2oc3ccc(S(=O)(=O)N4CCOCC4)cc3c2C)cc1 ?
NS1 function inh: 5%; StopGo reporter: inconclusive; Cruzain Triton: -3.5%; Cruzain noTriton: 13%; RE007 growth inh: 6%; SARS PLpro yeast: 0%; Marburg entry inh: inconclusive; LASV entry inh: inconclusive

Results for C[C@@H]1CC=C[C@H]2[C@H]1C(=O)N(Cc1ccccc1)[C@H]2c1ccoc1 ?
NS1 function inh: -8%; StopGo reporter: 0%; RE007 growth inh: -25%; SARS PLpro yeast: -2%

What do the screens show for `O=C(c1cccc2ccccc12)C1CCCN(C(=O)CCN2CCCO2)C1` (stereo not drawn)?
NS1 function inh: 1%; StopGo reporter: -11%; RE007 growth inh: -5%; SARS PLpro yeast: -1%; Marburg entry inh: 19%[46.1 µM]; LASV entry inh: -9%
